TRPV1 PAM = HTS Assay for Compounds that Act as Potentiators of the Vanilloid Receptor 1 | Transient receptor potential cation channel subfamily V member 1 (Homo sapiens), Q8NER1 | potentiation, % at 8.33 µM | actives 0.02% (n = 320,000) | TRPV1-expressing cells, Fluo-8 calcium influx, capsaicin EC20 potentiation; host cell line not named in the record; control for the full effect not named in the record; active means potentiation above 80%; inconclusive means 30% to 80%; inactive means below 30%; also: 0% is about no effect
Target sequence (Q8NER1 whole entry, looked up): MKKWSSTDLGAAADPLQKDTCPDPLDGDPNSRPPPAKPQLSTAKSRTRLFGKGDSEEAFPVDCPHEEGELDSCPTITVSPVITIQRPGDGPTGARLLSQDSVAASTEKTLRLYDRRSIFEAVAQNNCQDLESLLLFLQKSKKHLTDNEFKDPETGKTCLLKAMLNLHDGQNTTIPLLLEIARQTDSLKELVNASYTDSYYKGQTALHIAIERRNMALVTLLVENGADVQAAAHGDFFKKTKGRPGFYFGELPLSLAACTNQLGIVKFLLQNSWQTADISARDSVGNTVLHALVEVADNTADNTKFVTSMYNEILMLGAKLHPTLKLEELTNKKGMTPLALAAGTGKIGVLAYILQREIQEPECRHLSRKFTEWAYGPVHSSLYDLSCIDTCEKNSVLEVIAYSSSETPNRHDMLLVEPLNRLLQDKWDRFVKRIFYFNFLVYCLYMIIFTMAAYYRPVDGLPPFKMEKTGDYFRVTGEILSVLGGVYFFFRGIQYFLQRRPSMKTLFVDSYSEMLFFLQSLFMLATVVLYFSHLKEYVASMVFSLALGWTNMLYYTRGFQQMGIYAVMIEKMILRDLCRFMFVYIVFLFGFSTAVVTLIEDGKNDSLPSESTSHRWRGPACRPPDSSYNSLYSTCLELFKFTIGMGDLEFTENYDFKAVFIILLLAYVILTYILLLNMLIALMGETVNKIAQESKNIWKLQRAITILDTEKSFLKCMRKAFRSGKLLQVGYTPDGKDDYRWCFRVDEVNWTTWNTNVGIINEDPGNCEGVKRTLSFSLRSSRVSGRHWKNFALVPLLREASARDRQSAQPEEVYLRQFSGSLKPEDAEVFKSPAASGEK
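Fluo-8 calcium influx in TRPV1-expressing cells, kinetic read (ex 480/em 520 nm). Compound added and read 3 min for agonist activity, followed by capsaicin at EC20 final and 2 min further read for enhancement.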
Six1-Eya2 blk = qHTS Assay for Inhibitors of the Six1/Eya2 Interaction | Homeobox protein SIX1 (Homo sapiens) + Protein phosphatase EYA2 (Homo sapiens), … | AlphaScreen GST-Six1/His-Eya2 binding, biochemical; hits give low values; control for the full effect not named in the record | activity change, % (concentration not given with the values) | actives 0.56% (n = 360,000); in the data active = activity change below about -65%; inconclusive = about -30% to -65%; inactive = above about -30%; also: % is scaled to controls: 0 for no effect and ±100 for the full control effect
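Homogeneous AlphaScreen proximity assay pairing GST-Six1 with His-tagged Eya2 (added as 5X mix: 250 nM and 500 nM) in 50 mM Tris pH 8.0, 300 mM NaCl, 1 mM TCEP. Glutathione donor and nickel acceptor beads; 1 h, 37 °C, dark.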
CtBP-E1A blk = qHTS Assay for Inhibitors of the CtBP/E1A Interaction; CtBP / adenovirus E1A interaction (AlphaScreen); AlphaScreen GST-E1A/His-CtBP binding, 1536-well; hits give low values; control for the full effect not named in the record; activity change, % (test concentration not listed); actives 0.49% (n = 340,000); in the data active means activity change below about -65%; inconclusive means about -30% to -65%; inactive means above about -30%; also: % is scaled to controls: 0 for no effect and ±100 for the full control effect; compound concentration not given in the record
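GST-E1A and His-tagged CtBP (125 nM each as 5X stock) were preincubated with pin-transferred compound for 2 h at 37 °C in the dark, then glutathione donor and nickel acceptor beads were added for 1 h before AlphaScreen reading.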
Sfp inh = qHTS Assay for Inhibitors of Bacillus subtilis Sfp phosphopantetheinyl transferase (PPTase). 4'-phosphopantetheinyl transferase ffp (Bacillus subtilis), Q9F4F7. Biochemical Sfp PPTase activity, qHTS. Potency, µM, for inactives: max response, negative = inhibition, actives largely listed as inhibitors. actives 3.5% (n = 310,000). AID 1490, 2009; active = well fitted inhibition curve with a large enough effect; inconclusive = small, poorly fitted or top-dose-only effect, or another doubt; inactive = no such curve, though single readings can be large or run the other way;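 also: the enzyme is Sfp with the accession as filed and its product quenches rhodamine fluorescence; potency is read from the fitted curve at half-maximal effect; 0% = enzyme reaction without inhibitor and -100% = no enzyme wells; top concentration of the series not given in the record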
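After 15 min at room temperature with compound, 15 nM Sfp received 5 uM rhodamine-CoA plus 12.5 uM BHQ-2-ybbR (50 mM Hepes pH 7.6, 10 mM MgCl2). Rate came from the fluorescence difference over 30 min, ex 525/em 598 nm.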
PINK1 expr mod = A Quantitative High throughput Screen to Identify Chemical Modulators of PINK1 Expression; PINK1 immunofluorescence, high-content cytometry, 24 h; Potency, µM (doses to about 76.6 µM), for the others: at the highest dose activation (PINK1 increase), actives largely listed as activators; actives 0.2% (n = 410,000); AID 624263, 2012; active = well fitted activation curve with a large enough effect; inconclusive = small, poorly fitted or top-dose-only effect; inactive = flat fitted curve, though single readings scatter; cell line not stated here;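 also: potency is read from the fitted curve at half-maximal effect; % of control where 0% means no effect; nearly all actives have a fitted effect of over 65% in size; a mitochondrial uncoupler was the plate control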
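Decision-based qHTS: stable cells, 24 h exposure to five compound concentrations, CCCP as control. Fixed cells stained for PINK1 plus nuclear, mitochondrial and cell markers, cytometer read.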
D2 potentiator = Beta-Arrestin HTS for Positive Allosteric Modulators of the Human D2 Dopamine Receptor: Potentiators. DiscoveRx D2 beta-arrestin cells, luminescence, 90 min; 100% = 57 uM dopamine signal. AID 624464, 2012. actives 0.23% (n = 360,000). potentiation, % (concentration not given with the values). D(2) dopamine receptor (Homo sapiens), P14416; active = potentiation of 50% or more; inconclusive = 30% to 50%; inactive = 30% or less;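 also: compound concentration not given in the record; tested on top of an EC20 dose of dopamine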
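D2 cells co-treated with compound plus 50 nM dopamine (EC20) for 90 min at 37 deg C to detect potentiation. Beta-arrestin recruitment was read as enzyme-fragment luminescence after 1 h at ambient temperature. Full response was set by 57 uM dopamine.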
D2 ag = Beta-Arrestin HTS for Positive Allosteric Modulators of the Human D2 Dopamine Receptor: Agonists. D(2) dopamine receptor (Homo sapiens), P14416. DiscoveRx PathHunter D2 beta-arrestin, luminescence, 90 min; 100% = 57 uM dopamine signal. activation, % (no concentration beside the values). actives 0.084% (n = 360,000). AID 624465, 2012; in the data active = activation above about 40%; inconclusive = about 15% to 40%; inactive = below about 15%; also: compound concentration not given in the record; the text of the record calls up to 30% inactive
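DiscoveRx PathHunter D2 beta-arrestin cells (2,100/well) attached overnight, then compound-stimulated 90 min at 37 C in HBSS/10 mM HEPES/0.1% Tween-20 buffer; beta-galactosidase complementation read by luminescence after 1 h at ambient temperature. Dopamine 57 uM final (EC100) as control.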
* = called active by the depositor; ? = inconclusive; / = not tested or not shown; & = joins results of further samples; [ ] = dose if it differs, or a comment.

Sample of the layout, two compounds:
SMILES	TRPV1 PAM	Six1-Eya2 blk	CtBP-E1A blk	Sfp inh	PINK1 expr mod	D2 potentiator	D2 ag
O=C(/C=C/c1ccccc1)Nc1nnc(-c2ccco2)o1	-3	11	-1	17%	0.4%	-11	-1.4
CC(=O)Nc1ncc(Cc2cccc(Cl)c2)s1	-3	-2	1	13%	3.6%	2	2.6

All compounds of this part, from the first entry:
SMILES	TRPV1 PAM	Six1-Eya2 blk	CtBP-E1A blk	Sfp inh	PINK1 expr mod	D2 potentiator	D2 ag
O=C(/C=C/c1ccccc1)Nc1nnc(-c2ccco2)o1	-3	11	-1	17%	0.4%	-11	-1.4
CC(=O)Nc1ncc(Cc2cccc(Cl)c2)s1	-3	-2	1	13%	3.6%	2	2.6
Cc1cn([C@H]2C[C@H](O)[C@@H](CNCc3ccc(F)c(N4CCOCC4)c3)O2)c(=O)[nH]c1=O	/	-4	-1	/	-1.2%	-8	-5.8
O=C(Nc1cc(S(=O)(=O)N2CCCCC2)ccc1N1CCOCC1)c1cc(=O)[nH]c2ccccc12	12	3	1	10%	1.8%	-6	2.6
COc1ccc(N(CC(=O)N/N=C(\C)c2ccc(OC)c(OC)c2)S(=O)(=O)c2ccccc2)cc1	15	-14	-6	6%	15%	-2	5.7
CC(=O)Nc1ccc(C(=O)OCC(=O)N2CC3(C)CC2CC(C)(C)C3)cc1 (stereo not given)	/	10	0	/	0.3%	-8	1.6
O=C(CSc1nnc(COc2ccccc2Cl)o1)NC(=O)NC1CCCC1	7	-3	-6	-4%	3.4%[38.3 µM]	-13	-1.0
CCOC(=O)c1cnn(CCOC(=O)c2ccc(OC)cc2)c1NC(=O)c1ccc(OC)cc1	-3	11	24	-16%	-1.0%	-16	-1.6
CC(=O)N1c2ccc(S(=O)(=O)N3CCC(C(=O)NC4CCCCC4C)CC3)cc2CC1C (stereo not given)	29	3	6	9%	0.4%	-6	-3.7
CN(Cc1ccccc1)C(=O)CSc1nnc(-c2ccco2)n1-c1ccccc1	-7	-5	-12	?	1.6%	-36	-4.5
COc1ccccc1C(=O)N1CCN(c2ccc(N3CCOCC3)nn2)CC1	26	-3	11	/	-2.2%	-6	-7.5
CC1CCC(C(C)C)C(=O)/C1=C/c1ccc(N)cc1 (stereo not given)	6	-4	0	-3%	0.4%	0	1.7
Cc1cccc2sc(NNC(=O)C3=COCCO3)nc12	8	1	23	19%	-1.9%	-27	-1.0
O=C(CSc1ccc(-c2ccccn2)nn1)N1CCc2ccccc21	18	?	?	-8%	-1.7%	-4	-2.1
O=C(NCCO)c1cccc(-c2ccc3nncn3c2)c1	/	6	-8	/	0.3%	2	9.0
CCOC(=O)c1cc2c(c(CSc3nc4ccccc4c(=O)n3Cc3ccco3)c1)OCOC2	16	-2	-2	14%	22%[38.3 µM]	-2	-2.5
CC(C)CNC(=O)C(=O)NCC1OCCN1S(=O)(=O)c1cccs1 (stereo not given)	/	-3	-1	/	1.3%	-9	-4.0
O=C(O)[C@H](Cc1ccccc1)Nc1ccc([N+](=O)[O-])cn1	-8	4	/	1%	-0.8%	-10	-2.9
CCc1ccc(S(=O)(=O)NCCc2csc(-c3ccccc3)n2)s1	?	23	45	6%	1.0%[38.3 µM]	-13	-1.4
CCOc1cc([N+](=O)[O-])cc(/C=C2/NC(=O)N(Cc3ccccc3F)C2=O)c1O	9	-26	-20	-16%	4.6%	-13	-6.4
O=C(NC(=S)Nc1ccc(F)cc1)c1ccc2c(c1)OCCO2	-15	-14	-7	2%	13%	-6	-5.0
COC(=O)CCc1nc2cc(Cl)ccc2n(Cc2ccccc2)c1=O	-11	10	/	2%	2.0%	-6	-6.5
Cc1ccc(C(=O)CCC(=O)Nc2cccc(C(F)(F)F)c2)cc1	-1	0	5	20%	4.6%	-5	1.3
CNc1ccc(S(=O)(=O)NCC(=O)OC(C)C(=O)N(C)Cc2ccccc2)cc1[N+](=O)[O-] (stereo not given)	0	-5	/	/	-0.1%	-6	-4.0
COc1ccc(CC(=O)N2CCC(n3nccc3NC(=O)C3CCOC3)CC2)cc1 (stereo not given)	11	5	-4	13%	-0.9%	3	-2.3
COCCN(C(=O)COC(=O)CCC(=O)c1ccc(Cl)cc1)c1c(N)n(Cc2ccccc2)c(=O)[nH]c1=O	-3	-1	4	13%	0.5%	3	-2.4
CC1=C(C(=O)OCc2ccccc2)C(c2ccc(N(C)C)cc2)NC(=O)N1 (stereo not given)	-33	-25	-7	2%	/	10	-2.6
N#CCCN(C(=O)COC(=O)c1cc(=O)c2ccccc2o1)c1ccccc1	-7	4	4	/	-1.4%	7	8.6
Cc1ccc(/C=N/Nc2nc(N3CCCCC3)nc(N3CCCCC3)n2)o1	2	-7	0	-6%	2.2%	-12	1.3
CC(=O)Nc1ccccc1NC(=O)C/C(C)=N/NC(=O)c1cccnc1	4	-5	5	-18%	-0.4%	-2	0.7
Cc1ccc(S(=O)(=O)N(C)C)cc1NC(=O)C(C)Sc1ccccc1 (stereo not given)	4	-1	-1	1%	1.6%	-29	-1.4
C[N+]1(CC(=O)OCCCc2ccccc2)CCCC1	5	1	1	1%	4.8%	-4	-2.0
CCCNC(=O)c1cc(C2CCCCN2S(=O)(=O)c2cn(C)cn2)on1 (stereo not given)	/	1	-1	/	-1.0%	-7	-4.1
C=CCn1c(=NC(=O)c2sc3ccccc3c2Cl)sc2cc(S(N)(=O)=O)ccc21	-11	8	11	-10%	?	-10	3.9
O=[N+]([O-])c1ccc(CSc2ccc(S(=O)(=O)N3CCCC3)cn2)cc1	-10	-14	-6	/	0.2%	2	5.3
C=CCN(c1ccccc1OC)S(=O)(=O)c1cccc(C(=O)OCC(=O)N2CC(C)OC(C)C2)c1 (stereo not given)	/	3	-20	/	-1.1%	4	-1.2
CN(C)/C=N/c1c(C#N)cnn1-c1ccc(C(F)(F)F)cn1	-5	-3	6	17%	-1.6%[38.3 µM]	-6	0.6
CCN1C/C(=C/c2cccc([N+](=O)[O-])c2)C(=O)/C(=C/c2cccc([N+](=O)[O-])c2)C1	-6	14	-1	-22%	-1.6%	-17	-3.6
O=C(O)c1ccccc1C(=O)Nc1ccc(S(=O)(=O)N2CCCC2)cc1	1	4	-8	1%	-1.5%	-5	2.6
CC(C)NC(=O)NC1C2CC3CC(C2)CC1C3 (stereo not given)	-3	-3	0	6%	-2.4%	-2	-3.1
Cc1cc(=O)oc2cc(OCC(=O)Nc3ccc(S(=O)(=O)N(C)C)cc3)ccc12	4	3	/	-18%	5.1%	-10	-2.0
Cc1nnc(SCC(=O)N2c3ccccc3CC2C)s1 (stereo not given)	10	-2	4	23%	0.9%	-27	-3.8
Cn1c(-c2ccc3ccccc3n2)[n+](C)c2ccccc21	-3	-1	-8	8%	0.7%	-12	-1.4
CCCn1c(C)cc(C(=O)COC(=O)CN=C2NS(=O)(=O)c3ccccc32)c1C	22	-16	-9	-7%	0.3%	11	2.1
Cc1cc(-c2nnnn2-c2cc(Cl)cc(Cl)c2)no1	-2	6	4	10%	1.3%	-7	0.3
COc1ccc(CN2C(=O)C(CC(=O)NC3CCCC3)CC(C(=O)N(C)C)=C2C)cc1 (stereo not given)	/	2	0	/	3.2%	/	-1.9
CC(=O)Nc1ccc(/C=C/c2nc3ccccc3o2)cc1	-18	4	7	-10%	0.2%	-7	1.3
Cc1ccc(NC(=O)NNc2cccc(Cl)n2)cc1	-15	15	40	-6%	2.8%	-20	-2.6
Cc1onc(-c2ccccc2)c1-c1ccnn1S(=O)(=O)c1ccc(Cl)cc1	-3	3	12	2%	-0.3%	2	-0.8
O=C(/C=C/c1ccco1)NC(=S)Nc1ccccn1	11	-3	-1	?	-0.2%	-25	-4.4
Cc1onc(-c2ccccc2)c1C(=O)NC(=S)NNC(=O)c1cc(-c2ccc(F)cc2)n[nH]1	0	-11	-1	21%	0.9%	-3	2.6
CCc1nn(CC(=O)NCCCc2ccccc2)c(=O)c2cc3c(OC)cccc3n12	-11	6	/	-5%	2.0%&2.6%	-4	-0.9
CN1CCn2cnc(C(=O)NCc3ccccc3)c2C1=O	/	-1	-14	/	-0.2%	-4	-5.8
CCn1nnnc1SCC(=O)N(C)C1CCS(=O)(=O)C1 (stereo not given)	3	-2	/	/	-0.3%	-7	-5.2
CNC(=S)N1CCC(NC(=O)C23CC4CC(CC(C4)C2)C3)CC1	7	-2	/	12%	-1.1%	-3	4.5
COCCn1c(SCC(=O)Nc2cc(C(C)(C)C)nn2-c2ccccc2)nc2ccccc2c1=O	-14	5	-3	18%	9.9%	-10	-1.0
COc1nccnc1NS(=O)(=O)c1ccc(N/C=C2\CCCCC2=O)cc1	1	-5	-12	14%	-0.7%	-2	-1.3
C=CC[C@@H](CC(=O)OC(C)(C)C)C(=O)OC[C@@H]1CCCN1C(=O)[C@H](CC=C)CC(=O)NCCO	/	-2	5	/	-0.5%	/	0.6
CCOc1ccc(S(=O)(=O)N2CCN=C2c2ccccc2)cc1	6	0	19	13%	?	11	0.8
COc1ccc(-c2cn(CCC(=O)NCc3ccc(C)cc3)c(-c3ccncc3)n2)cc1	-26	-18	-27	3%	1.3%	-9	-4.3

5 compounds from above, showing only CtBP-E1A blk:
smiles | CtBP-E1A blk
C=CCn1c(=NC(=O)c2sc3ccccc3c2Cl)sc2cc(S(N)(=O)=O)ccc21 | 11
O=[N+]([O-])c1ccc(CSc2ccc(S(=O)(=O)N3CCCC3)cn2)cc1 | -6
C=CCN(c1ccccc1OC)S(=O)(=O)c1cccc(C(=O)OCC(=O)N2CC(C)OC(C)C2)c1 (stereo not given) | -20
CN(C)/C=N/c1c(C#N)cnn1-c1ccc(C(F)(F)F)cn1 | 6
CCN1C/C(=C/c2cccc([N+](=O)[O-])c2)C(=O)/C(=C/c2cccc([N+](=O)[O-])c2)C1 | -1

High-throughput results: PubChem, National Center for Advancing Translational Sciences (NCATS)
